# Mtb hypoxia rep = reduces hypoxia-regulated biosensor signal in M. tuberculosis | fluorescence inhibition, % (test concentration not listed) | 0.1% of 300,000 active | M. tuberculosis hypoxia-regulated fluorescent reporter, fluorescence;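 active means 35 to 45% if threefold the growth effect, above 45% if 1.5-fold the growth effect; inactive means the rest, general growth blockers included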;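 further: wells of about 50 µL received 100 nL stock; 0% = vehicle wells and 100% = reference inhibitor wells; whole bacteria with a GFP reporter of the hypoxia response; strong numbers were not always called active; many hits fall short of the cut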
# Sa ugtP lethal = compounds lethal to S. aureus RN4220 ugtP deletion mutant. OD600 growth, 16 h; some inactives read as strong as hits. growth inhibition, % (no concentration beside the values). 0.54% of 330,000 active;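 active means z-score under -3 and OD600 up to 0.15 on both plates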;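 further: plate controls were untreated wells for no effect and antibiotic for full effect; wells of about 80 µL received 100 nL stock; the first replicate is given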
# Bead autofluor = counter-screen for toxin protease inhibitors: compound fluorescence; fluorescence intensity (no concentration beside the values); compound autofluorescence counterscreen, microsphere flow cytometry; hits give high values; AID 624483; 3.1% of 360,000 active;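 active means at least 3 SD above the mean of all compounds, about 16000 in these data; inconclusive means too few beads counted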;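 further: 100 nL of 1 mM stock went into each well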
# PrP UTR inh = suppresses PrP 5' UTR mRNA reporter expression | cell-based PrP 5' UTR mRNA reporter, plate reader | inhibition, % (no concentration beside the values) | 0.35% of 340,000 active | AID 488862;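 active means every replicate at 50% or more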;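 further: 0 = median of the neutral control wells; tested in H4 reporter cells; numbers are from one replicate; inactives centre near -14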
# Sa RN4220 lethal = S. aureus RN4220 growth inhibition. OD600, 16 h. inhibition, % (concentration not given with the values). 0.33% of 330,000 active. AID 1259311;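 active means z-score of -3 or lower and OD600 up to 0.18 on both plates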;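 further: plate controls were untreated cells for no effect and reference antibiotic for full effect; stock transfer was 100 nL into about 80 µL; one replicate is shown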
# BJeLR viability = kills HRASV12-expressing BJeLR cells | 0.17% of 300,000 active | inhibition, % (concentration not given with the values) | BJeLR (HRASV12) viability, CellTiter-Glo ATP luminescence, 48 h; reference of the scale not given here;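 active means replicate mean above 50%; inconclusive means above 50% but judged a plate artefact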;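 further: 50 nL library stock added to about 25 µL; numbers are from one replicate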
# Mtb hypoxia rep growth = second read-out of Mtb hypoxia rep, no call of its own (marks repeat the call); growth inhibition, %; measured here: M. tuberculosis growth (absorbance);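 0% = vehicle and 100% = reference antibiotic; read after six days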
# An asterisk follows results filed as active; ? = inconclusive; / = not tested or not shown.
SMILES,Mtb hypoxia rep,Mtb hypoxia rep growth,Sa ugtP lethal,Bead autofluor,PrP UTR inh,Sa RN4220 lethal,BJeLR viability
COc1ccc(N2C(=O)N3[C@H](c4ccc(Cl)cc4)[C@@H]4C(=O)N(C5CCCCC5)C(=O)[C@@H]4[C@]3(Cc3ccc(Cl)cc3)C2=O)cc1,/,/,/,3817,-3.4,/,6.3
CC(=O)c1ccc(-c2ccc(C(=O)N(C)Cc3nc4ccccc4c(=O)[nH]3)o2)cc1,-1.4,4.4,-5.9,5238,-19.7,3.4,/
COc1ccc(CNC(=O)COC(=O)C(CCSC)NC(=O)c2ccco2)cc1OC (stereo unspecified),6.1,10.9,-2.2,3987,-13.8,-1.0,/
O=C(CNC(=O)C(c1ccccc1)c1ccccc1)N/N=C/c1ccc(O)c([N+](=O)[O-])c1,/,/,/,6687,-14.3,/,-10.9
CCOC(=O)c1c2ccc(OCC(=O)NN=Cc3ccc(C)cc3)cc2n2ccccc12,-3.6,5.2,-20.4,/,/,-4.9,/
CCOc1cc(S(=O)(=O)NCc2cccnc2)c(C)cc1C,18.5,3.4,5.6,4373,-15.3,11.1,10.5
CCOC(=O)NC(=O)/C(C=Nc1ccc(Cl)c(Cl)c1Cl)=C(\C)O,-0.2,7.3,3.4,2138,-15.8,3.5,1.6
CCOc1ccc(OCC)c(NC(=O)C2CCCN(S(=O)(=O)c3ccc(C)cc3)C2)c1 (stereo unspecified),4.1,-0.8,9.9,4629,-18.8,-1.6,7.8
CCn1c2ccccc2c2cc(/C=N/n3c(C)nnc3C)ccc21,/,/,/,9695,-12.7,/,-5.4
Cc1c(Cl)cccc1NC(=O)CNc1ccccc1F,3.1,-0.4,8.0,2049,-15.9,2.8,-2.1
COc1cccc(-c2nn3c(-c4cccc(C)c4)nnc3s2)c1,6.3,-0.8,-23.9,17527*,-9.9,10.2,6.5
CCOc1ccccc1C(=O)N1c2ccccc2Sc2ccccc21,/,/,53.5,2824,-8.0,1.2,5.4
CC(C)=CCN1CCN(Cc2ccc(Oc3ncccn3)cc2)CC1CCO (stereo unspecified),7.8,6.5,3.6,2655,-17.3,3.3,-13.4
Cc1ccc(Nc2nc(CSc3nnc(-c4cccs4)o3)cs2)cc1,/,/,-1.8,2149,-27.6,6.0,4.3
COC(=O)\C(C(C)=O)=C(/C=C/C=C/N(C)C)N(C)C,/,/,5.9,?,-16.0,-3.2,3.6
CCc1ccc(OC(=O)CN2C(=O)c3ccccc3C2=O)cc1,6.9,1.8,1.6,4434,-24.1,2.1,-21.6
O=C(NCCCN1CCCC1=O)c1ccccc1NS(=O)(=O)c1ccc(Br)cc1,4.9,3.6,-4.9,3293,-18.8,3.9,-1.0
Cc1ccc2c(CC(=O)NCc3ccco3)coc2c1C,/,/,-4.8,4159,-27.7,-7.1,14.3
N/C(=N\c1nc2ccccc2o1)NC(=O)c1ccccc1Br,/,/,/,4758,-60.2,/,-4.0
CC(=O)c1cccc(NC(=O)Nc2cnn(Cc3ccc(F)cc3)c2)c1,-18.2,3.9,-2.1,/,/,-2.5,-3.2
Cc1cc(-c2ccccc2)c(C#N)c(N)n1,/,/,-1.2,4759,9.1,1.2,4.0
Cn1c(=O)c2c(SCC(=O)NCc3ccco3)nc(CC(C)(C)C)nc2n(C)c1=O,10.8,5.2,-7.6,5752,-33.6,-6.2,-10.1
COc1cccc(-c2ccnc3[nH]n(-c4ccccc4)c(=O)c23)c1,18.6,15.4,11.0,3726,-10.1,1.0,-5.9
CCN(CC)S(=O)(=O)c1cccc(-c2cn3cccnc3n2)c1,-1.0,-1.7,7.0,4920,-21.7,5.6,-0.5
Fc1ccc(N2CCN(c3cnc4ccccc4n3)CC2)cc1,0.7,-5.8,0.1,4156,-56.2,3.9,5.7
COc1ccccc1NC(=O)Cc1noc(CSc2n[nH]c(N)n2)n1,8.9,-1.5,6.1,4381,-8.2,4.9,-9.3
O=C(CCC(=O)N1CCOc2ccccc21)NCCCN1CCCCC1,-0.5,-1.1,-2.7,6523,-20.8,-1.4,-5.9
COc1ccc(/C=C/C(=O)OCC(=O)NC2CCCC(C)C2C)cc1S(=O)(=O)N1CCOCC1 (stereo unspecified),0.3,4.2,2.4,5061,-6.8,2.9,3.8
COc1ccc(OC)c(/C=N\Nc2nccs2)c1,/,/,/,5954,-27.9,/,-4.7
O=S(=O)(Nc1ccncc1)c1cc(Cl)c(Cl)cc1Cl,1.7,-4.0,3.9,2990,-11.5,0.2,-12.0
Cc1cccc(NC(=S)N2CCC(N(C)CC3CCCO3)CC2)c1 (stereo unspecified),-6.2,-5.9,10.3,5615,0.5,3.7,2.0
CCOC(=O)c1c(NC(=O)COC(=O)Cn2cnc3c2c(=O)n(C)c(=O)n3C)sc(C)c1CC,2.4,8.3,-3.1,5178,10.4,1.6,2.2
COc1ccc(CNC(=O)c2cc(-c3ccc(OC)c(OC)c3)on2)cc1,2.8,3.7,2.6,11435,-12.4,1.8,2.8
COc1ccc(OC)c(C(c2nnnn2Cc2ccccc2)N2CCN(C)CC2)c1 (stereo unspecified),/,/,-8.6,2469,-22.1,1.8,-3.7
CCC1CCCCN1CCCNC(=O)c1ccc2c(c1)c(C)c(C)n2C (stereo unspecified),17.3,7.1,7.7,7382,-20.3,1.7,2.5
Cc1ccc(NC(=O)CNC(=O)c2ccc3c(c2)OCO3)nc1,1.3,-3.6,5.3,6184,-23.3,-2.2,-1.9
CCOP(=O)(Oc1ccccc1)c1c([N+](=O)[O-])cc(C(F)(F)F)cc1[N+](=O)[O-] (stereo unspecified),41.8*,24.2*,7.7,2978,-23.7,5.6,-14.4
Cc1cccc(C(=O)OCC(=O)N2CCN(C(=O)c3ccco3)CC2)c1O,8.2,9.8,4.2,3656,-22.2,-1.5,/
O=C(O)c1cccc([N+](=O)[O-])c1C(=O)Nc1nc2ccccc2s1,12.0,3.3,0.2,4183,-26.5,8.0,5.5
CCCC(=O)Nc1ccc2oc(-c3cccnc3)nc2c1,-6.9,3.2,-8.5,4210,-45.6,-5.2,0.1
Cn1c(SCC(=O)NCc2ccco2)nnc1-c1cccs1,4.0,3.2,4.0,8994,-10.1,3.6,-9.4
COC(=O)c1ccc(/C=N/n2cnnc2)cc1,/,/,/,8869,-14.5,/,6.0
O=C(c1ccco1)N1CCC(c2ccccc2)C1 (stereo unspecified),/,/,10.3,8379,-51.7,5.1,-9.7
O=C(O)Cn1cc(C=C2SC(=O)N(CC(=O)N3CCCCCC3)C2=O)c2ccccc21,-0.9,2.2,-2.2,/,/,-2.9,/
Cc1ccc(OCC(=O)OCCN2C(=O)c3ccccc3C2=O)cc1C,/,/,/,2521,-21.4,/,6.6
CCNc1nc(NCC)n2c(SCC(=O)Nc3ccc(OC(F)F)cc3)nnc2n1,-7.5,6.4,5.4,6094,-10.5,7.3,-7.0
CC(C)(C)CNC(=O)c1ccc2c(c1)S(=O)(=O)c1cc(Cl)ccc1C2=O,-2.9,4.5,6.1,3943,-25.8,15.6,/
COc1cc(C(=O)Nc2ccc(C)cc2)c2ccccc2n1,-7.8,0.4,3.4,3839,41.4,1.1,46.5
CC(C)OC(=O)c1ccc(COc2ccc3ccc(=O)oc3c2)o1,10.0,12.4,10.9,5370,-36.5,-4.8,-10.6
CCOC(=O)N1CCN(C(=O)c2cnn3c(C(F)F)cc(-c4ccc(C)cc4)nc23)CC1,/,/,-2.9,4602,-19.1,3.4,-4.0
CCOc1ccccc1NC(=O)CCn1c(=O)oc2ccccc21,2.8,10.3,2.2,5813,-23.7,13.5,2.0
O=C(CCCn1c(=O)[nH]c2ccsc2c1=O)N1CCN(c2ccccn2)CC1,-0.3,-1.5,-2.5,9066,-1.6,2.5,2.0
CC(C)CCNC(=O)CCc1nnc2ccc(N3CCC(C)CC3)nn12,-5.1,9.4,-1.4,2810,-17.8,3.6,2.7
Cc1cc(-n2cccn2)ccc1CN1CCN(CC(C)C)C(CCO)C1 (stereo unspecified),4.6,3.4,-6.2,3863,-15.0,5.8,2.3
N#CCCN1CCN(C(=S)c2ccc(-c3cccc(Cl)c3)o2)CC1,16.5,5.5,21.8,12509,-46.0,6.2,-1.0
COc1cc(=O)n2c(-c3ccccc3)csc2n1,8.9,8.9,6.3,3441,6.8,18.0,-7.5
CCCCNC(=O)C1c2ccccc2Oc2ccccc21,20.7,4.4,3.1,4197,-26.4,0.3,2.7
CNC(=O)c1sc(NCc2ccccc2OC)nc1C,-4.1,-6.8,10.7,4614,-21.6,2.1,-10.0
CCOC(=O)N1CCC(=NNC(=O)COc2ccc(OC)cc2)CC1,6.8,0.1,5.5,1910,-18.9,4.1,1.3
CCN(CC)c1ccc(S(=O)(=O)N(CC)CC)cc1NC(=O)c1cccnc1,0.9,2.0,4.6,4143,-15.7,0.2,2.5

# Just Mtb hypoxia rep growth, Bead autofluor and PrP UTR inh, for some of the entries so far:
SMILES	Mtb hypoxia rep growth	Bead autofluor	PrP UTR inh
Cn1c(=O)c2c(SCC(=O)NCc3ccco3)nc(CC(C)(C)C)nc2n(C)c1=O	5.2	5752	-33.6
COc1ccc(OC)c(/C=N\Nc2nccs2)c1	/	5954	-27.9

# (more compounds)
SMILES,Mtb hypoxia rep,Mtb hypoxia rep growth,Sa ugtP lethal,Bead autofluor,PrP UTR inh,Sa RN4220 lethal,BJeLR viability
Cc1cc(OC(C)C(=O)NCCCN2CCOCC2)ccc1Cl (stereo unspecified),-9.1,0.9,-3.7,5904,-20.4,-3.5,6.4
O=C(OCn1nnc2ccccc2c1=O)C1CCCCC1,10.7,7.1,-5.7,4029,-1.7,-14.6,0.8
CCCNC(=O)NC(=O)COC(=O)c1cccc(NS(=O)(=O)c2ccc(F)c(F)c2)c1,12.5,6.9,-13.8,2417,-17.2,8.2,13.3
Cc1cc2c(cc1C)NC(c1c(C)n(C)n(-c3ccccc3)c1=O)C1=C(CC(C)(C)CC1=O)N2 (stereo unspecified),-2.7,8.0,-1.9,3686,-26.3,-2.4,1.9
Cc1ccc(CNC(=O)C2CCN(S(=O)(=O)c3cccnc3)CC2)cc1,-7.1,-0.1,1.6,6059,-5.8,0.3,5.6
CC1(C)Oc2ccc(NC(=O)c3ccco3)cc2O1,5.9,-7.7,9.7,2964,-54.1,6.3,4.6
CCc1ccccc1N(CC(=O)NCCSCc1ccco1)S(C)(=O)=O,9.9,3.3,4.4,6469,-24.0,-0.1,-5.9
COc1ccc(CCN2C(=O)CSC2c2ccc(F)cc2)cc1 (stereo unspecified),2.5,-0.6,6.1,7872,-66.0,2.0,-4.6
COc1ccccc1-c1cc(C(F)(F)F)n2ncc(C(=O)N3CCc4ccccc4C3)c2n1,5.2,12.3,5.9,5322,-9.4,2.4,3.0
Cc1ccc(Oc2ccc(C(=O)NCc3ccncc3)cc2)cc1,-6.9,6.4,-0.8,2775,-12.9,-9.1,14.6

# Seven structures already listed, arranged by number of heavy atoms, ascending.
SMILES,Mtb hypoxia rep,Mtb hypoxia rep growth,Sa ugtP lethal,Bead autofluor,PrP UTR inh,Sa RN4220 lethal,BJeLR viability
O=C(OCn1nnc2ccccc2c1=O)C1CCCCC1,10.7,7.1,-5.7,4029,-1.7,-14.6,0.8
Cc1cc(OC(C)C(=O)NCCCN2CCOCC2)ccc1Cl (stereo unspecified),-9.1,0.9,-3.7,5904,-20.4,-3.5,6.4
Cc1ccc(Oc2ccc(C(=O)NCc3ccncc3)cc2)cc1,-6.9,6.4,-0.8,2775,-12.9,-9.1,14.6
Cc1ccc(CNC(=O)C2CCN(S(=O)(=O)c3cccnc3)CC2)cc1,-7.1,-0.1,1.6,6059,-5.8,0.3,5.6
CCCNC(=O)NC(=O)COC(=O)c1cccc(NS(=O)(=O)c2ccc(F)c(F)c2)c1,12.5,6.9,-13.8,2417,-17.2,8.2,13.3
COc1ccccc1-c1cc(C(F)(F)F)n2ncc(C(=O)N3CCc4ccccc4C3)c2n1,5.2,12.3,5.9,5322,-9.4,2.4,3.0
Cc1cc2c(cc1C)NC(c1c(C)n(C)n(-c3ccccc3)c1=O)C1=C(CC(C)(C)CC1=O)N2 (stereo unspecified),-2.7,8.0,-1.9,3686,-26.3,-2.4,1.9

# Screening results (PubChem BioAssay)
